Bioassay records (PubChem)
HSD17B inhib – inhibitors of human HSD17B10 dehydrogenase; Potency, µM (doses to about 57.1 µM), inactives show at the top dose activity change, negative = inhibition, hits mostly inhibitors; recombinant HSD17B10, NADH fluorescence kinetic; many of its hits are not listed in these tables; actives 7.6% (n = 75,000); active = well fitted inhibition curve with a large enough effect; inconclusive = small, poorly fitted or top-dose-only effect; inactive = no such curve, though single readings can be large or run the other way;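 note: the protocol describes HADH2 (HSD17B10) and not the HSD17B4 of the title; nearly all actives have a fitted effect of over 70% in size; most hits overshoot -100% by far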
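20 nM HADH2, pH 9.0 Tris/Tween; cpd preinc 15 min RT; start w/ 1 mM NAD+ + 90 uM b-hydroxybutyryl-CoA; kinetic fluor ex360/em450 q30s x 4 min; delta last-first.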
Numbers without * were called inactive; [ ] = remark or other dose. % is set by controls: 0 for no effect and ±100 for the full control effect; potency is the fitted concentration of half-maximal effect.

How did O=C(O)CCC(=O)c1cccc2ccccc12 do in these assays?
HSD17B inhib: -3%

Results for Cc1ccc(N(CC(=O)NC2CCC(C)CC2)S(=O)(=O)c2cccnc2)cc1 (stereo not drawn) ?
HSD17B inhib: 0%

How did Cc1ccc(S(=O)(=O)N2CCCC2C(=O)Oc2ccccc2)cc1 (stereo not drawn) do in these assays?
HSD17B inhib: -3%

Results for CCOc1cc(NC(=O)c2ccco2)c(OCC)cc1NC(=O)COc1ccccc1 ?
HSD17B inhib: inconclusive

How did CCn1c(CNc2cccc(Cl)c2)nnc1SCc1ccccc1 do in these assays?
HSD17B inhib: 5%

Results for CN1CCN(c2ccc(NC(=O)c3ccccc3Br)cc2)CC1 ?
HSD17B inhib: -3%

What do the screens show for `COc1ccc(C(=O)Nc2c(N)nc(SCC(=O)N3CCCCCC3)[nH]c2=O)cc1OC`?
HSD17B inhib: -28%

Results for Cc1noc(C)c1COC(=O)CCc1nc2ccccc2s1 ?
HSD17B inhib: 4%

What do the screens show for `CCCc1cc(=O)oc2c(C)c3occ(C)c3cc12`?
HSD17B inhib: -18%

Results for Cc1n[nH]c(C)c1S(=O)(=O)N1CCCC(C(=O)NCC2COc3ccccc3O2)C1 (stereo not drawn) ?
HSD17B inhib: -2%

Results for O=C(COc1ccc(Br)cc1)OCc1nnc(-c2ccccc2)o1 ?
HSD17B inhib: -12%

How did Cc1cc(NC(=O)CSc2nnc(COc3ccccc3)o2)no1 do in these assays?
HSD17B inhib: -1%

Results for O=C(c1ccco1)N1CCN(Cc2ccc(Cl)cc2)CC1 ?
HSD17B inhib: -2%

Results for CCCCC1C(=O)N(c2ccccc2)N(c2ccc(O)cc2)C1=O (stereo not drawn) ?
HSD17B inhib: -14%

Results for O=C(N1CCCCC1)N1CCN(C(=O)N(c2ccccc2)c2ccccc2)CC1 ?
HSD17B inhib: 4%

Results for Clc1ccc2c(N3CCC(CCC4CCN(c5ncnc6cc(Cl)ccc56)CC4)CC3)ncnc2c1 ?
HSD17B inhib: 1%[11.4 µM]

What do the screens show for `O=S(=O)(Nc1cccnc1)c1ccc(C2CCCCC2)cc1`?
HSD17B inhib: -1%

Results for CCOC(=O)N1CCC(N2C(=O)c3ccc(C(=O)NC4CCCCCC4)cc3C2=O)CC1 ?
HSD17B inhib: 6%

Results for CC(C)(C)N(Cc1ccccc1)C(=O)CSc1nnc(CNc2ccc(F)cc2)o1 ?
HSD17B inhib: 0%

Results for COC(=O)c1sc(NC(=O)Cc2cccs2)nc1C ?
HSD17B inhib: -1%

How did Cc1ccc(-n2c(Cc3cccs3)nnc2SCC(=O)OC(C)C)cc1 do in these assays?
HSD17B inhib: 0%

How did O=C(Nc1ccc(S(=O)(=O)N2CCc3ccccc3C2)cc1)C1CCCO1 (stereo not drawn) do in these assays?
HSD17B inhib: -3%

What do the screens show for `O=C(C1CCC(C(=O)N2CCc3ccccc32)CC1)N1CCc2ccccc21` (stereo not drawn)?
HSD17B inhib: -2%

Results for CCCCC(=O)NC1(C(F)(F)F)C(=O)Nc2c1c(=O)[nH]c(=O)n2Cc1ccco1 (stereo not drawn) ?
HSD17B inhib: -11%

What do the screens show for `CCC(C)n1nccc1NC(=O)C(C)OC(=O)c1cc2ccccc2[nH]1` (stereo not drawn)?
HSD17B inhib: 25µM*

What do the screens show for `OC(COc1ccc2ccccc2c1Cl)CN1CCOCC1` (stereo not drawn)?
HSD17B inhib: -7%

What do the screens show for `COC(=O)c1cc2sccc2n1Cc1nc(-c2ccc(OC)cc2)oc1C`?
HSD17B inhib: inconclusive

How did CCc1nc(C)cc(N)c1OCc1ccccc1 do in these assays?
HSD17B inhib: 2%

Results for Fc1ccc2c(c1)[C@H]1OCC[C@H]1[C@@H](c1ccco1)N2 ?
HSD17B inhib: 32µM*

What do the screens show for `O=C(Nc1nc(-c2cccnc2)cs1)c1ccc(S(=O)(=O)N2CCOCC2)cc1`?
HSD17B inhib: 2%

Random excerpt: seven compounds from above, in no set order.
Results for Fc1ccc2c(c1)[C@H]1OCC[C@H]1[C@@H](c1ccco1)N2 ?
HSD17B inhib: 32µM*

What do the screens show for `OC(COc1ccc2ccccc2c1Cl)CN1CCOCC1` (stereo not drawn)?
HSD17B inhib: -7%

What do the screens show for `O=S(=O)(Nc1cccnc1)c1ccc(C2CCCCC2)cc1`?
HSD17B inhib: -1%

Results for CC(C)(C)N(Cc1ccccc1)C(=O)CSc1nnc(CNc2ccc(F)cc2)o1 ?
HSD17B inhib: 0%

Results for Clc1ccc2c(N3CCC(CCC4CCN(c5ncnc6cc(Cl)ccc56)CC4)CC3)ncnc2c1 ?
HSD17B inhib: 1%[11.4 µM]

Results for CCCCC(=O)NC1(C(F)(F)F)C(=O)Nc2c1c(=O)[nH]c(=O)n2Cc1ccco1 (stereo not drawn) ?
HSD17B inhib: -11%

Results for CCOC(=O)N1CCC(N2C(=O)c3ccc(C(=O)NC4CCCCCC4)cc3C2=O)CC1 ?
HSD17B inhib: 6%

(cont.)
How did CNC(=O)CN1C(=O)c2ccccc2S1(=O)=O do in these assays?
HSD17B inhib: -2%

How did O=C(CSc1oc(-c2ccc(F)cc2)nc1S(=O)(=O)c1ccccc1)NCC1CCCO1 (stereo not drawn) do in these assays?
HSD17B inhib: 1%

What do the screens show for `O=c1c2ccccc2n2cnnc2n1-c1ccccc1`?
HSD17B inhib: 10%

How did COC(=O)c1sc(NC(=O)c2ccco2)nc1C do in these assays?
HSD17B inhib: 1%

Results for CCOC(=O)c1ccc(CNC(=O)C2CCCCC2C(=O)OCC(F)(F)F)o1 (stereo not drawn) ?
HSD17B inhib: 6%

How did Cc1occc1C(=O)Nc1c(F)cc(F)cc1Br do in these assays?
HSD17B inhib: 1%

What do the screens show for `CNC/C(Cl)=N/S(=O)(=O)c1ccc(C)cc1`?
HSD17B inhib: 0%[11.4 µM]

What do the screens show for `CCc1c(C)nc2ncnn2c1N1CCCC(C(=O)NCCc2ccccc2)C1` (stereo not drawn)?
HSD17B inhib: 0%

How did Cc1ccccc1NC(=O)c1ccccc1 do in these assays?
HSD17B inhib: -2%

What do the screens show for `COc1cccc(C2=CC(c3cc(OC)ccc3OC)n3nnnc3N2)c1` (stereo not drawn)?
HSD17B inhib: -20%

Results for COc1ccccc1-c1nnc(SCCN2CCOCC2)n1-c1ccc(C)cc1 ?
HSD17B inhib: 2%

What do the screens show for `CN(C)C(=O)CSc1nnc(CCNC(=O)OC(C)(C)C)o1`?
HSD17B inhib: 3%

How did O=C(O)C(F)(F)S(=O)(=O)O do in these assays?
HSD17B inhib: 2%

What do the screens show for `Cc1noc(C)c1COC(=O)c1cccnc1SCC(=O)Nc1ccc2c(c1)OCO2`?
HSD17B inhib: -5%

Results for COc1ccc(NC(=O)c2oc3cc(C)c(C)cc3c2C)c(OC)c1 ?
HSD17B inhib: 31%[activator]

For reference, three of the compounds above.
How did O=C(O)C(F)(F)S(=O)(=O)O do in these assays?
HSD17B inhib: 2%

What do the screens show for `Cc1noc(C)c1COC(=O)c1cccnc1SCC(=O)Nc1ccc2c(c1)OCO2`?
HSD17B inhib: -5%

Results for COc1ccc(NC(=O)c2oc3cc(C)c(C)cc3c2C)c(OC)c1 ?
HSD17B inhib: 31%[activator]

3 structures already listed, ordered by formula weight, high to low.
What do the screens show for `Cc1noc(C)c1COC(=O)c1cccnc1SCC(=O)Nc1ccc2c(c1)OCO2`?
HSD17B inhib: -5%

Results for COc1ccc(NC(=O)c2oc3cc(C)c(C)cc3c2C)c(OC)c1 ?
HSD17B inhib: 31%[activator]

What do the screens show for `CN(C)C(=O)CSc1nnc(CCNC(=O)OC(C)(C)C)o1`?
HSD17B inhib: 3%

Continued.
What do the screens show for `CC(C)CCn1nnnc1C(c1ccc(F)cc1)N1CCN(C(=O)c2ccco2)CC1` (stereo not drawn)?
HSD17B inhib: -2%

Results for COc1ccc(-n2c(=O)c3ccccc3n(CC(=O)NC3CCCC3)c2=O)cc1 ?
HSD17B inhib: 6%

Results for COc1cccc(-c2nc(N3CCNCC3)c3ccccc3n2)c1 ?
HSD17B inhib: -9%

How did Cc1ccccc1NC(=O)c1c(F)c(F)c(F)c(F)c1F do in these assays?
HSD17B inhib: 7%

How did O=C(CSc1nnc2scc(-c3ccccc3)n12)N1CCN(Cc2ccccc2)CC1 do in these assays?
HSD17B inhib: -4%

Results for Cc1cc(C(=O)NCc2cccnc2)no1 ?
HSD17B inhib: 12%

What do the screens show for `CCN(CC)CCOc1nc(C)nc2c1oc1ccccc12`?
HSD17B inhib: 3%

Results for COc1cccc(-n2c(SC)nnc2-c2cnccn2)c1 ?
HSD17B inhib: -5%

How did CC(=O)[C@@H]1[C@@H]2C(=O)N(c3ccc(F)c(Cl)c3)C(=O)[C@@H]2C2c3ccccc3C=CN21 (stereo partly drawn) do in these assays?
HSD17B inhib: 20µM*

Results for CCOC(=O)C1CCCN(C(=O)c2cc3c(=O)n4cccc(C)c4nc3n2C)C1 (stereo not drawn) ?
HSD17B inhib: 3.2µM*

What do the screens show for `O=c1cc(Cn2ccnc2)c2cc3c(cc2o1)CCC3`?
HSD17B inhib: inconclusive

Results for Cc1ccc(S(=O)(=O)NCc2csc(C)n2)c(C)c1 ?
HSD17B inhib: 10%

Results for CC(Sc1n[nH]c(=O)[nH]c1=O)C(=O)OCc1ccccc1 (stereo not drawn) ?
HSD17B inhib: -1%

Results for CCN1CCN(CCCNC(=O)c2cc3cc4ccc(OC)cc4nc3o2)CC1 ?
HSD17B inhib: 25µM*

What do the screens show for `CN(C)c1ccc(-c2noc(-c3ccccc3O)n2)cc1`?
HSD17B inhib: 4µM*

What do the screens show for `O=C(Oc1ccccc1C(=O)N1CCOCC1)c1cccc(Br)c1`?
HSD17B inhib: -5%

What do the screens show for `CSc1cccc(NS(=O)(=O)c2ccc3c(c2)oc(=O)n3C)c1`?
HSD17B inhib: 0%

How did Cc1cc(C)cc(NCC(=O)Nc2c(C)cccc2C)c1 do in these assays?
HSD17B inhib: 0%

Results for COc1ccc(-n2nnnc2-c2cccc(OC)c2)cc1 ?
HSD17B inhib: -1%

Results for O=C(CSCc1ccccc1)N1CCN(C(=O)c2ccco2)CC1 ?
HSD17B inhib: -10%

What do the screens show for `O=[n+]1c2c(n([O-])c3c1CCCC3)CCCC2`?
HSD17B inhib: -2%

How did O=C(c1cccc(F)c1)N1CCC2(CCCN(c3ccc(-c4ccccc4)cc3)C2)CC1 do in these assays?
HSD17B inhib: -6%

Results for CC(=O)N1[C@H](Cc2ccccc2)C=C[C@]1(C)C(=O)O ?
HSD17B inhib: inconclusive

How did CCOc1ccc(-n2c(Cc3cc(=O)[nH]c(=O)[nH]3)nnc2SCC(=O)OC)cc1 do in these assays?
HSD17B inhib: -6%

Results for CC(C)(C)Nc1ncnc2c1cnn2-c1ccccc1 ?
HSD17B inhib: -26%

Results for CNC1C(OC2C(O[C@@H]3C(O)C(O)[C@@H](N=C(N)N)C(O)C3N=C(N)N)OC(C)[C@@]2(O)CO)OC(CO)C(O)C1O (stereo partly drawn) ?
HSD17B inhib: 4%

What do the screens show for `CC(C)C(=O)N[C@H]1CCCN1C(=O)/C=C\c1ccccc1`?
HSD17B inhib: 4%[11.4 µM]

How did COc1ccc(C2CC(=O)C3=C(C2)Nc2ccccc2N(C(=O)C2CC2)C3c2cccnc2)cc1OC (stereo not drawn) do in these assays?
HSD17B inhib: -12%

What do the screens show for `CC(C)OC(=O)C1C2C=CC3(CN(C(C)c4ccc(Br)cc4)C(=O)C13)O2` (stereo not drawn)?
HSD17B inhib: 1%

What do the screens show for `CC(C)c1cccc(O)c(=O)c1`?
HSD17B inhib: -10%

What do the screens show for `CCCCCCn1c(CN2CCCCC2C)nc2c1c(=O)n(C)c(=O)n2C` (stereo not drawn)?
HSD17B inhib: 5%

Results for CCOc1ccc(S(=O)(=O)Nc2cccc(Cl)c2)cc1 ?
HSD17B inhib: -3%

How did C=CCOC(=O)c1sc(N2C(=O)c3oc4ccccc4c(=O)c3C2c2ccco2)nc1C (stereo not drawn) do in these assays?
HSD17B inhib: -9%

What do the screens show for `COc1cc(-c2nn3c(-c4ccccc4)nnc3s2)cc(OC)c1OC`?
HSD17B inhib: 6%

How did Cc1ccc(NS(=O)(=O)c2cc(C(=O)O)ccc2Cl)c(C)c1 do in these assays?
HSD17B inhib: 10%

How did CC(C)OC(=O)CSc1nnc(-c2cccnc2)n1N do in these assays?
HSD17B inhib: 4%

Results for CC(C)Cc1cc(C(=O)Nc2c(F)cc(F)cc2Br)no1 ?
HSD17B inhib: 0%

What do the screens show for `CCNC(=O)COC(=O)c1ccc(S(=O)(=O)N2CCCCCC2)cc1`?
HSD17B inhib: 4%

Results for CNc1ncnc2c1ncn2[C@H]1C[C@@H](OP(=O)(O)O)[C@H](COP(=O)(O)O)O1 ?
HSD17B inhib: 5%

Results for COCc1c(C(N)=O)nnn1-c1nonc1N ?
HSD17B inhib: 0%

How did CCn1c(SCC(=O)Nc2ccccc2-c2ccccc2)nnc1-c1ccoc1C do in these assays?
HSD17B inhib: 3%

How did Cc1ccc(Oc2nsnc2N2CCOCC2)cc1 do in these assays?
HSD17B inhib: -16%

What do the screens show for `CN(C)S(=O)(=O)N1CCN(C(=O)N(c2ccccc2)c2ccccc2)CC1`?
HSD17B inhib: -6%

How did COc1ccc2c(c1)CCc1c(C(=O)N3CCCC3)noc1-2 do in these assays?
HSD17B inhib: -9%

How did CS(=O)(=O)N1CCCC(C(=O)NCCc2ccccc2)C1 (stereo not drawn) do in these assays?
HSD17B inhib: -2%

What do the screens show for `COc1cc(CNC(=O)OCC(C)C)cc(OC)c1OC`?
HSD17B inhib: 5%

Results for Cc1cc(C)n(-c2nc3ccccc3c(=O)n2OCCOc2ccccc2)n1 ?
HSD17B inhib: 3%

Results for C=CCn1c(SCc2cc(=O)n3ccsc3n2)nnc1C1CCCCC1 ?
HSD17B inhib: inconclusive

How did CC(=O)N[C@H](Cc1c[nH]c2ccccc12)C(N)=O do in these assays?
HSD17B inhib: 4%

What do the screens show for `Cc1cc(-n2c(SCCC#N)nnc2-c2cccnc2)ccc1Cl`?
HSD17B inhib: 2%

This is a subset; the hit share may differ from the screen's.
